# Bioassay records as filed in PubChem.
# N370S GC mod = qHTS Assay for Inhibitors and Activators of N370S glucocerebrosidase as a Potential Chaperone Treatment of Gaucher Disease; Lysosomal acid glucosylceramidase (Homo sapiens), P04062; N370S GC spleen homogenate, 4MU-glucoside fluorescence; Potency, µM (doses to about 59.4 µM), for the others: top-dose activity change, negative = inhibition, most hits filed as inhibitors; 330,000 compounds, 0.092% hits; AID 2101, 2009; active = well fitted inhibition curve with a large enough effect; inconclusive = small, poorly fitted or top-dose-only effect, or effect the other way, or another doubt; inactive = no such curve, though single readings can be large or run the other way;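 note: 0% = full enzyme activity and -100% = no enzyme basal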
# * hit, by the source's call; ? = inconclusive; [ ] = another dose, or the depositor's remark. Potency is the fitted concentration of half-maximal effect.
SMILES,N370S GC mod
CCN(CC)CCNC(=O)c1ccc(N)cc1,9%
CN(C(=O)COC(=O)c1cncc(Br)c1)C1CCS(=O)(=O)C1 (stereo not drawn),5%
O=C(CS(=O)(=O)c1ccccc1)Nc1nnc(Cc2ccccc2)s1,6%
CCC1CCC(NC(=O)Nc2cccc(OC)c2)CC1 (stereo not drawn),13%
CCOC(=O)N1CCC(n2c(SCC(=O)NCCC3=CCCCC3)nc3ccccc3c2=O)CC1,?
O=C(CSc1nc2ccccc2n1-c1ccccc1)NCC1CCCO1 (stereo not drawn),8%[2.35 µM]
CC(=O)Nc1ccc(C(=O)NCC(=O)OCc2c(F)cccc2Cl)cc1,-2%
O=C(Cc1ccccc1)NCCCc1ccccc1,4%
COC(=O)Nc1nc2ccc(C(=O)c3cccs3)cc2[nH]1,2%
Cc1ccc(C(=O)COC(=O)c2ccc3c(c2)C(=O)N(c2cccc4ncccc24)C3=O)cc1,-3%
CCn1nc(C(=O)O)c(=O)c2cc3c(cc21)OCO3,15%
CCc1cc(SC#N)cc(CC)c1NC(=O)CCl,-17%
CCOC(=O)C1=C(CP(=O)(c2ccccc2)c2ccccc2)NC(=O)NC1c1ccc(Cl)cc1 (stereo not drawn),11%
O=C(N/N=C/c1cccnc1)c1sc2ccccc2c1Cl,?
COc1ccc(OCCOC(=O)CNC(=O)c2cccc(C)c2)cc1,7%
CCOc1ccc(CN(C)C(=O)c2ccc(NC(=O)CC3SC(N4CCCC4)=NC3=O)cc2)cc1 (stereo not drawn),-12%
O=C(NCc1ccc2c(c1)OCO2)Oc1ccccc1,5%
COCCSc1nnc(NC(=O)CS(=O)(=O)c2ccccc2)s1,0%
CCOc1ccc2c(=O)c(Oc3ccccc3OCC)coc2c1,-10%
COc1ccc(NC(=O)CN2CCc3ccccc3C2)c(OC)c1,-15%
CCCn1c(/N=C/c2ccc3c(c2)OCO3)nc2ccccc21,-13%
COC(=O)c1c(NC(=O)Cc2cccs2)sc2c1CCCC2,?
COc1cccc(C2=NO[C@@H]3C(=O)N(c4ccc5c(c4)OCCO5)C(=O)[C@H]23)c1OC,8%
Cc1ccc(S(=O)(=O)CCC(=O)OCC(=O)N2CC(=O)Nc3ccccc32)cc1,3%
COC(=O)c1[nH]c2cc(OC)ccc2c1NC(=O)CCN1CCCC(C)(C)C1,-1%

# The closing 6 compounds of the section above lead into the next:
SMILES,N370S GC mod
COc1ccc(NC(=O)CN2CCc3ccccc3C2)c(OC)c1,-15%
CCCn1c(/N=C/c2ccc3c(c2)OCO3)nc2ccccc21,-13%
COC(=O)c1c(NC(=O)Cc2cccs2)sc2c1CCCC2,?
COc1cccc(C2=NO[C@@H]3C(=O)N(c4ccc5c(c4)OCCO5)C(=O)[C@H]23)c1OC,8%
Cc1ccc(S(=O)(=O)CCC(=O)OCC(=O)N2CC(=O)Nc3ccccc32)cc1,3%
COC(=O)c1[nH]c2cc(OC)ccc2c1NC(=O)CCN1CCCC(C)(C)C1,-1%
c1ccc(Cn2nnc3c(N4CCOCC4)ncnc32)cc1,5%
COc1cccc(NC(=O)c2nc3nc(C)cc(C(F)F)n3n2)c1,-17%
Cc1nc2ccccc2c2oc(C(=O)NCc3ccc4c(c3)OCO4)cc12,-4%
COC(=O)CC1C(=O)NCCN1C(=S)Nc1ccc(F)cc1 (stereo not drawn),-1%
Cc1nnc(SCC2=C(C(=O)O)N3C(=O)C(NC(=O)Cn4cnnn4)[C@@H]3SC2)s1 (stereo partly drawn),-5%
O=C(CN1CCCC1)Nc1nnc(-c2cccs2)s1,11%
CC1(C)Cc2c(cnn2-c2cccc(F)c2)C(NC(=O)Cn2cccn2)C1 (stereo not drawn),-9%
CCn1c(C)nc2cc(-c3nnc(-c4c(-c5ccccc5)noc4C)o3)ccc21,2%
CCCn1c(CCNC(=O)c2ccco2)nc2ccccc21,-7%
Cc1ccc(S(=O)(=O)N(C)CC(=O)N2CCC(C(N)=O)CC2)cc1,-4%
O=C(NCc1ccncc1)c1cc(S(=O)(=O)N2CCOCC2)c(Cl)cc1Cl,5%
CC(C)(CNC(=O)c1ccc(S(=O)(=O)N2CCCC2)cc1)N1CCOCC1,3%
CSc1cccc(NC(=O)COc2cccc3ccccc23)c1,6%
CCOC(=O)NNc1cc(C(F)(F)F)ccn1,7%
CCOC(=O)c1ccc(N2C(=O)CC(C3CCCO3)C2=O)cc1 (stereo not drawn),1%
CN1CCN(C(=O)c2cc(COc3ccc(F)cc3Cl)on2)CC1c1ccccc1 (stereo not drawn),-25%
CCC(C(=O)NC1CCCCC1)n1nc(C)c2c(C)n(-c3ccccc3)nc2c1=O (stereo not drawn),-1%
Cc1cc(C)cc(N(CC(=O)NCC2CCCO2)C(=O)CN2C(=O)COc3ccccc32)c1 (stereo not drawn),1%
O=C(CSc1ccc(Cl)cc1)NCc1ccco1,21%
Cc1ccc2[nH]c(=O)cc(C(=O)OCC(=O)c3ccc(F)cc3)c2c1,4%
Cc1ccccc1N1CCN(C(=S)c2ccccc2)CC1,3%
CCN(CC)S(=O)(=O)c1ccc(N2CCOCC2)c(NS(=O)(=O)c2cc(C(C)(C)C)ccc2C)c1,-7%
O=C(COc1ccc(Br)cc1)NCCCNC(=O)c1cnccn1,-7%
COc1ccc(/C(N)=N/OC(=O)c2cc(-c3ccccc3)nc3ccccc23)cc1,12%
CCn1nnnc1SCC(=O)c1cc(Cl)ccc1OC,1%

# Gathered by group, those above containing a COOH group (two)
SMILES,N370S GC mod
CCn1nc(C(=O)O)c(=O)c2cc3c(cc21)OCO3,15%
Cc1nnc(SCC2=C(C(=O)O)N3C(=O)C(NC(=O)Cn4cnnn4)[C@@H]3SC2)s1 (stereo partly drawn),-5%

# The main list resumes; the 4 compounds before the break are reprinted first.
SMILES,N370S GC mod
CCN(CC)S(=O)(=O)c1ccc(N2CCOCC2)c(NS(=O)(=O)c2cc(C(C)(C)C)ccc2C)c1,-7%
O=C(COc1ccc(Br)cc1)NCCCNC(=O)c1cnccn1,-7%
COc1ccc(/C(N)=N/OC(=O)c2cc(-c3ccccc3)nc3ccccc23)cc1,12%
CCn1nnnc1SCC(=O)c1cc(Cl)ccc1OC,1%
CCN(CC)C(=N)/C(C#N)=N/Nc1ccccc1,-10%
O=C1CNC(=S)N1Cc1ccccc1,-6%
CCOC(=O)N1CCN(CCC(=O)Nc2ccc(OC(F)(F)F)cc2)CC1,2%
COc1cc(/C=N/NC(=O)c2ccoc2C)ccc1OCCN1CCCCC1,-3%
COc1ccc2nc(NC(=O)CSc3n[nH]c(N)n3)sc2c1,-15%
O=S(=O)(c1ccc(Br)s1)N1CCc2ccccc2C1,15%
COc1cc(OC)cc(C(=O)Nc2nc(CC(=O)NCc3ccccc3OC)cs2)c1,-11%
O=C(Nc1nc2ccc(F)cc2s1)C1=COCCO1,2%
O=C(NCCc1ccc(F)cc1)C1CCCCC1,5%
C/C(N)=C(/C#N)C(=O)CSc1nnc(-c2ccc(OC(F)F)cc2)o1,0%
CC(C)c1ccccc1OCC(=O)NCC(c1cccs1)N1CCOCC1 (stereo not drawn),6%
CCC(CC)C(=O)OCC(=O)Nc1cccc(S(=O)(=O)N(C)c2ccccc2)c1,-8%
CCCCN(Cc1cc2ccccc2[nH]c1=O)S(C)(=O)=O,-1%
O=C(CNC(=O)c1cccs1)NCC(=O)OCc1cccc(Cl)c1,2%
Cc1ccc(-c2nc(NC(=O)c3nn(C)cc3[N+](=O)[O-])sc2C)cc1C,-13%
O=C(Nc1ccc(N2CCOCC2)cc1)C1CC1,-1%
COCCNC(=O)CN(C(=O)CCC(=O)Nc1ccccn1)c1ccccc1F,3%
COC(=O)c1cc(OC)c(OC)cc1NC(=O)CCC1CCCC1,19%
O=C1c2cccnc2Oc2ccc(Cl)cc2N1Cc1ccc(F)cc1,6%
O=C(NCc1ccco1)c1ccc(Cn2c(=O)c3ccccc3n(Cc3cccc(Cl)c3)c2=O)cc1,5%
Cc1nc2sc(C(c3ccc(Cl)cc3)N3CCN(C(=O)c4ccco4)CC3)c(O)n2n1 (stereo not drawn),-6%
CS(=O)(=O)N(CC(=O)Nc1cccc(F)c1)c1cccc([N+](=O)[O-])c1,-22%
Cc1cc(NC(=O)CSCC(=O)Nc2ccc(Cl)c(C(F)(F)F)c2)no1,0%

# Not all compounds are listed; most or all hits stand in other tables.
